Assay outcomes as filed in PubChem.
MITF inhib – blocks MITF activity. TRPM1 promoter luciferase, luminescence, 24 h. inhibition, % (concentration not given with the values). hit rate 0.28% among 37,000. AID 2240;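 active means most replicates at 85% or more, or half of them and the mean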;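 further: human melanocyte line stably carrying TRPM1 promoter luciferase reporter; 0% = vehicle wells and 100% = a positive control; the first replicate is given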
YB-1 expression – YB-1 expression inhibition; U2OS, qRT-PCR YB-1 vs CDIP delta delta Cp, 16 h; active compounds read high; zero = DMSO, each unit about twofold; delta delta Cp (YB-1 minus CDIP) (concentration not given with the values); hit rate 0.37% among 30,000;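 active means delta delta Cp rounded down to an integer at or above 3, about 3 SD of DMSO wells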;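 further: higher means less YB-1 transcript or more CDIP transcript relative to DMSO; stock transfer was 100 nL into about 100 µL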
An asterisk follows results filed as active; . = not tested or not shown. The list is partial, so the mix of outcomes need not match the whole.

SMILES	MITF inhib	YB-1 expression
COc1ccc(OC)c(NC(=O)Cn2cc(C(=O)c3ccccc3)c3ccccc32)c1	21	.
CCC(CO)(C(=O)OC1CC2CCC(C1)N2C)c1ccccc1 (stereo not drawn)	-27	.
COc1cc(CNCCc2c[nH]c3ccccc23)c([N+](=O)[O-])cc1OC	-5	.
CCCCn1c(C)c(C(C)=O)c2c(OCC(=O)O)c(Cl)c(Cl)c(Cl)c21	7	.
NCC(=O)Nc1ccc(Br)cc1C(=O)c1ccccc1	-125	.
COc1ccc(CC2(CCc3ccccn3)C(=O)NC(=O)N(c3ccccc3C)C2=O)cc1OC (stereo not drawn)	10	.
C[C@@H]1CN([C@H](C)CO)C(=O)CCCn2nncc2CO[C@H]1CN(C)C(=O)Oc1ccccc1	.	-0.35
C[C@H](CO)N1C[C@H](C)[C@@H](CN(C)C(=O)Oc2cccc3ccccc23)OCc2cnnn2CCCC1=O	.	0.44
C[C@H](CO)N1C[C@H](C)[C@H](CN(C)C(=O)Oc2ccc3ccccc3c2)OCc2cn(nn2)CCCC1=O	.	-0.51
C[C@H]1CN([C@@H](C)CO)C(=O)CCCn2cc(nn2)CO[C@H]1CN(C)C(=O)Oc1ccc2ccccc2c1	.	0.27
C[C@@H]1CN([C@@H](C)CO)C(=O)CCCn2cc(nn2)CO[C@@H]1CN(C)C(=O)Oc1ccc2ccccc2c1	.	-0.3
COc1ccc(OC(=O)N(C)C[C@@H]2OCc3cnnn3CCCC(=O)N([C@@H](C)CO)C[C@@H]2C)cc1	.	-0.49
C[C@H]1CN([C@@H](C)CO)C(=O)CCCn2nncc2CO[C@H]1CN(C)C(=O)Oc1ccc2ccccc2c1	.	-0.19
C[C@@H]1CN([C@@H](C)CO)C(=O)CCCn2nncc2CO[C@H]1CN(C)C(=O)Oc1ccc2ccccc2c1	.	-0.47
COc1ccc(OC(=O)N(C)C[C@H]2OCc3cnnn3CCCC(=O)N([C@@H](C)CO)C[C@@H]2C)cc1	.	-0.31

A different layout for part of the listing above.
CCC(CO)(C(=O)OC1CC2CCC(C1)N2C)c1ccccc1 (stereo not drawn)
  MITF inhib: -27	YB-1 expression: .

COc1cc(CNCCc2c[nH]c3ccccc23)c([N+](=O)[O-])cc1OC
  MITF inhib: -5	YB-1 expression: .

CCCCn1c(C)c(C(C)=O)c2c(OCC(=O)O)c(Cl)c(Cl)c(Cl)c21
  MITF inhib: 7	YB-1 expression: .

An excerpt of these results, with values under each structure:
Every second line gives: MITF inhib | YB-1 expression
> COc1ccc(OC)c(NC(=O)Cn2cc(C(=O)c3ccccc3)c3ccccc32)c1
→ 21 | .
> COc1ccc(CC2(CCc3ccccn3)C(=O)NC(=O)N(c3ccccc3C)C2=O)cc1OC (stereo not drawn)
→ 10 | .
> C[C@H](CO)N1C[C@H](C)[C@H](CN(C)C(=O)Oc2ccc3ccccc3c2)OCc2cn(nn2)CCCC1=O
→ . | -0.51
> COc1ccc(OC(=O)N(C)C[C@H]2OCc3cnnn3CCCC(=O)N([C@@H](C)CO)C[C@@H]2C)cc1
→ . | -0.31
> C[C@H]1CN([C@@H](C)CO)C(=O)CCCn2nncc2CO[C@H]1CN(C)C(=O)Oc1ccc2ccccc2c1
→ . | -0.19
